# Vaccinia mCherry = qHTS for Stage-Specific Inhibitors of Vaccinia Orthopoxvirus: mCherry Reporter Primary qHTS | Vaccinia virus mCherry reporter infection, fluorescence; about a quarter of the inactives have no number | Potency, µM (doses to about 36.5 µM), inactives show top-dose activity change, negative = inhibition, usual class: inhibitors | hit rate 0.63% among 310,000 | AID 720579, 2013; active = well fitted inhibition curve with a large enough effect; inconclusive = small, poorly fitted or top-dose-only effect; inactive = no such curve, though single readings can be large or run the other way; tested in A549 cells; also: nearly all actives have a fitted effect of over 35% in size; inactives centre near -10
# VACV Venus inh = qHTS for Stage-Specific Inhibitors of Vaccinia Orthopoxvirus: Venus Reporter Primary qHTS | Vaccinia virus Venus reporter expression, fluorescence | Potency, µM (series often up to 36.5 µM), without a hit: top-dose activity change, negative = inhibition, most hits filed as inhibitors | hit rate 0.46% among 330,000 | AID 720580, 2013; active means well fitted inhibition curve with a large enough effect; inconclusive means small, poorly fitted or top-dose-only effect; inactive means no such curve, though single readings can be large or run the other way; tested in A549 cells; also: nearly all actives have a fitted effect of over 30% in size; inactives centre near -10
# An asterisk follows results filed as active; i = inactive; ? = inconclusive; . = not tested or not shown; & = joins results of further samples; ! = not active in a repeat; [ ] = remark or other dose. % is scaled to controls: 0 for no effect and ±100 for the full control effect; potency is read from the fitted curve at half-maximal effect.
# The opening three records, ahead of the listing:
Structure	Vaccinia mCherry	VACV Venus inh
C=Cc1ccc(Cn2c(C)c(C(=O)NCc3ccc(Cl)c(Cl)c3)sc2=O)cc1	5.7%	-21.3%
CCOC(=O)CSc1nc(C)c(C(=O)OCC)s1	.	-9.9%
N#CC(C#N)=Cc1ccc(-c2ccccc2F)o1	i	-1.8%

# The list itself, repeating the preview:
Structure	Vaccinia mCherry	VACV Venus inh
C=Cc1ccc(Cn2c(C)c(C(=O)NCc3ccc(Cl)c(Cl)c3)sc2=O)cc1	5.7%	-21.3%
CCOC(=O)CSc1nc(C)c(C(=O)OCC)s1	.	-9.9%
N#CC(C#N)=Cc1ccc(-c2ccccc2F)o1	i	-1.8%
CCOC(=O)c1cn2nc(-c3ccc(OC)cc3)cc2nc1C1CCN(C(=O)OC(C)(C)C)CC1	-5.5%	-10.8%
O=C1C(=O)N(C2CCNCC2)CCN1Cc1ccccc1	-6.6%	1.8%
Cc1cc2c(cc1S(=O)(=O)NCc1ccc(F)cc1)n(C)c(=O)c(=O)n2C	-9.7%	-1.9%
COc1cc(OC)c(OC)cc1CN1CCN(C(=O)c2cccc3ccccc23)CC1	i	-8.4%
Cc1cc2oc(C(=O)Nc3sc4c(c3C(=O)NCC3CCCO3)CCCC4)cc(=O)c2cc1C (configuration not stated)	-5.3%	-10.3%
COC(=O)C1CCN(c2nc3ccccc3nc2C(C#N)C(=O)NCCc2ccccc2)CC1 (configuration not stated)	.	-7.1%
Cc1ccc(C(=O)Nc2ccc(C)c(S(=O)(=O)Nc3ccccc3Cl)c2)s1	-24.4%	-26.1%
COCCNc1nc(NCc2cnc(C)cn2)c2sccc2n1	-3.9%	4.4%
C[C@@H]1CN([C@H](C)CO)C(=O)CCCn2cc(nn2)CO[C@H]1CN(C)S(=O)(=O)c1ccc(F)cc1	-13.0%	-8.1%
CN(C)CCn1c2c(c(SCC(=O)Nc3cccc4ccccc34)nc1=O)CCCC2	-14.5%	-27.6%
Clc1cccc(-n2ncc3c(NCCc4ccccc4)ncnc32)c1	-20.1%	-2.6%
CCOc1ccc(NC(=O)C(C)Oc2ccccc2C(=O)Nc2cccc(Cl)c2Cl)cc1 (configuration not stated)	5.8%	3.4%

# Going on with the list:
Structure	Vaccinia mCherry	VACV Venus inh
CCCn1c(SCC(=O)Nc2ccccc2-c2ccccc2)nnc1-c1ccoc1C	-9.4%	-28.3%
Cc1cccc(N2C(=O)CSC2c2cccnc2)c1 (configuration not stated)	i	-7.5%
CC1(C(=O)NS(=O)(=O)c2cccc(C#N)c2)CCN1C(=O)c1ccccc1CCc1ccccc1 (configuration not stated)	41.2%[activator]	5.3%
CCCCn1c(=O)c2oc3ccccc3c2n(CC(=O)Nc2cccc(Cl)c2)c1=O	-1.9%	-24.0%
Cc1ccccc1NC(=O)CCCC(=O)c1ccccc1	-13.7%	-13.3%
CCc1ccc(N(C(=O)c2ccco2)C(C(=O)NC2CCCC2)c2ccncc2)cc1 (configuration not stated)	-19.5%	-10.2%
COC(=O)[C@@]1(Cc2ccccc2)[C@H]2C(=O)N(C)C(=O)[C@H]2[C@H]2CN=C(SCC(=O)c3ccccc3)N21	?	-23.4%
COc1ccc(Cc2c(-c3ccc(C)cc3)nc3c4ccccc4ccn23)c(C)c1	25.9%	-4.7%
O=C(NCc1ccccn1)c1ccc(Cn2c(=S)[nH]c3ccc(Br)cc3c2=O)cc1	-14.2%	20.6%
O=C1Nc2ccc(Br)cc2/C1=C/C(=O)c1ccccc1	-15.0%	-21.7%
CCn1c(SC)nnc1C1CCN(CC(=O)Nc2ccccc2N2CCOCC2)CC1	-6.6%	-1.6%
CCCCNS(=O)(=O)c1ccc2nc(-c3cccnc3)cc(C(=O)NC3CC3)c2c1	-12.4%	-7.7%
COc1ccccc1NS(=O)(=O)c1cccc(C(=O)N/N=C/c2ccc([N+](=O)[O-])o2)c1	?	?
O=C1CCC(=O)N(c2ccccc2)N1	-1.4%	-11.3%
CCOC(=O)c1cnc2c(ccc3ccccc32)c1Nc1ccccc1OC	9.5%	14.7%

# New compounds follow
Structure	Vaccinia mCherry	VACV Venus inh
O=S(=O)(Nc1ccccn1)c1cnc(Cl)c(Br)c1	-19.5%	-13.0%
N#Cc1nc(Cc2cccc3ccccc23)oc1N1CCN(c2ccccc2)CC1	i	-14.9%
CCOC(=O)c1nnn(-c2nonc2N)c1CN1CCCC1	i	-7.7%
CC1=C(C)CS(=O)N(S(=O)(=O)c2ccc(Cl)cc2)C1 (configuration not stated)	-27.6%	-29.0%
Cc1ccccc1Oc1nc2c(c(=O)n(C)c(=O)n2C)n1C	-12.4%	-8.9%
O=C(Nc1ccccc1)C1=C[C@H](C2CCCCC2)C[C@H](OCCCCO)O1	-22.6%	-24.8%
Cn1cnnc1SCC(=O)Nc1nc(-c2ccc(F)cc2)cs1	0.8%	-8.0%
CCOC(=O)C1CCN(C(=O)CCCN2C(=O)c3ccccc3C2=O)CC1	-9.8%	-14.5%
COC(=O)C[C@H]1C=C[C@@H](NS(=O)(=O)c2ccc(C)cc2)[C@@H](CO)O1	-16.6%	-17.7%
CCCCOc1ccc(C2c3c(-c4ccccc4O)n[nH]c3C(=O)N2Cc2ccncc2)cc1OC (configuration not stated)	-16.1%	-22.1%
CC1(C(=O)NS(=O)(=O)c2ccc(Cl)cc2)CCN1C(=O)C1(c2ccccc2)CCCC1 (configuration not stated)	27.0%	-10.3%
CCC(=O)Oc1c(C(=O)CC)cc2c(C)cc(=O)oc2c1C	-3.9%	-12.0%
Cc1cccc(C(=O)N/N=C2/SCC(=O)N2Cc2ccccc2)c1	-2.9%	-3.8%
C#CCOCCOCCOCCNc1nc(N2CCN(C(=O)Cn3cc(CCO)nn3)CC2)nc(N2CCN(C(=O)[C@H](CCCCN)n3cc(CC(C)O)nn3)CC2)n1 (some centres not stated)	-1.4%	4.6%
CC1=CC(C)C(/C=N/N=C(N)N)C(C)C1 (configuration not stated)	?	-23.4%

# Additional results follow.
Structure	Vaccinia mCherry	VACV Venus inh
CCOC(=O)c1cnc(-c2ccccc2)nc1Oc1ccccc1	.	-7.2%
Cc1ccc(-n2nc3c(SCCN4CCOCC4)nnc(C)c3c2C)cc1	?	?
COc1ccc(-c2cn3c(n2)sc2cc(C(=O)NCCc4ccccc4)ccc23)cc1	-11.5%	-8.4%
CSc1ccccc1C(=O)NC1CCCc2ccccc21 (configuration not stated)	-3.5%	-13.5%
Cc1c(N2C(=O)CSC2=S)c(=O)n(-c2ccccc2)n1C	-1.2%	1.2%
CN(C(=S)NC(=O)c1ccccc1)c1c(N)n(Cc2ccccc2)c(=O)[nH]c1=O	i	-10.5%
Cc1cc(CO)nn1-c1ccc([N+](=O)[O-])cc1	8.0%	7.3%
O=S(=O)(c1cccc2nsnc12)N1CCNCC1	-13.4%	-5.4%
NC(=O)c1cc(S(=O)(=O)NCc2ccccc2)cs1	i	-8.6%
O=C(Nc1ccccc1Cl)Oc1ccc(-c2ccccc2)cc1	-1.1%	-9.9%
CCOC(=O)Nc1ccc2c(c1)N(C(=O)CCN1CCN3CCCC3C1)c1ccccc1CC2 (configuration not stated)	-18.9%	-14.2%
Cc1ccccc1C([O-])=Nc1ccc[n+](-c2nc3ccccc3nc2NS(=O)(=O)c2ccccc2)c1	-18.3%	-6.8%
CCS(=O)(=O)N1CCCC(C(=O)NC2CCC(C)CC2)C1 (configuration not stated)	i	-13.1%
O=C(Nc1ccccc1)Nc1nnc([C@H]2C[C@H](O)[C@@H](CO)O2)s1	0.8%	3.9%
CCCCNC(=O)[C@@H]1CC=C[C@@H]2CCN(Cc3ccccc3)C(=O)[C@@H]21	-17.6%	-9.5%

# (further entries)
Structure	Vaccinia mCherry	VACV Venus inh
O=C(CN1CCN(c2ccc(Cl)cc2)CC1)Nc1ccc(F)cc1F	-5.9%	-1.7%
COc1cccc(Cn2c(-c3nonc3N)nc3ccccc32)c1	.	?
COc1ccc(C(O)c2nc(-c3cnc4ccccc4c3)cs2)cc1 (configuration not stated)	10.6%	0.6%
Cc1ccc(F)c(CNC(=O)C2CCC(=O)N(Cc3ccccn3)C2)c1F (configuration not stated)	i	2.8%
Cc1ccc(C)c(NC(=O)CSc2nnc(-c3ccccc3)n2N)c1	.	-21.9%
Cc1ccc(NC(=O)CN2CCCC2c2cccn2C)cc1C (configuration not stated)	-2.7%	1.0%
O=C(Cc1cccs1)NC(c1ccccc1)c1ccccc1	-2.2%	-0.4%
COc1ccc(N2CCN(c3ncccn3)CC2)cc1	-9.9%	5.6%
C#CCNC(=O)C[C@@H]1C[C@@]2(C(=O)OCC)CCCC=C2N(Cc2ccc3c(c2)OCO3)C1=O	0.9%	-0.4%
O=C(NCc1csc(-c2cccs2)n1)C1CCCCC1	i	-19.8%
COc1ccc(CCN2CC(C(=O)N3CCSCC3)CCC2=O)cc1 (configuration not stated)	i	-11.2%
COc1ccc(C(=O)COC(=O)[C@H](C)Nc2ccc(C(F)(F)F)cc2[N+](=O)[O-])cc1	-4.5%	3.5%
Cc1ccc2c(C)c(C)c(=O)n(C)c2c1	-8.9%	-17.6%
COc1cc2c(cc1OC)C1C(=O)c3c(O)cc4c(c3OC1CO2)C=CC(C)(C)O4 (configuration not stated)	?	-26.0%
CC(C)c1ccc(C2C(C(=O)c3ccco3)=C(O)C(=O)N2CCN2CCOCC2)cc1 (configuration not stated)	-12.5%	-3.6%

# Continued.
Structure	Vaccinia mCherry	VACV Venus inh
COc1cccc(NC(=O)C2CCN(S(=O)(=O)c3ccc4c(c3)NC(=O)CO4)CC2)c1	-2.9%	-1.8%
Cc1cc(C)c(NC(=O)C(C)n2c(=O)c(C(F)(F)F)nc3ccccc32)c(C)c1 (configuration not stated)	-3.8%	-8.3%
COc1cccc(CNC(=O)CC(c2ccc(F)cc2)N2Cc3ccccc3C2=O)c1 (configuration not stated)	-9.2%	-11.0%
Cc1cc2ncn(-c3ncnc4scc(-c5ccccc5)c34)c2cc1C	-3.6%	0.4%
O=C(CS(=O)CC(=O)N(c1ccccc1)C(C(=O)NC1CCCCC1)c1ccco1)Nc1ccc(F)cc1 (configuration not stated)	i	-24.0%
CCOC(=O)CSc1nc2cc(OC)c(OC)cc2c2nc(-c3ccccc3)nn12	-9.6%	-6.0%
O=C(N/N=C/c1ccc([N+](=O)[O-])o1)C1CCCC1	?	?
CC1=C(C(=O)N(C)C)CC(CC(=O)NC(c2ccccc2)c2ccccc2)C(=O)N1CCCN1CCCC1=O (configuration not stated)	i	-7.3%
CCCc1cnc2c(c1SCC(=O)Nc1ccc(C)c(Cl)c1)c(=O)n(C)c(=O)n2C	-8.2%	-14.7%
CC(OC(=O)c1ccccc1C(=O)N(C)c1ccccc1)C(=O)Nc1ccccc1[N+](=O)[O-] (configuration not stated)	i	-18.7%
CCOc1ccc(N(CC(=O)NCc2ccccc2)C(=O)CCC(=O)Nc2nccs2)cc1	-23.5%	-13.6%
Cc1ccccc1NC(=S)N1CCN(c2ccccc2C)CC1	?	-17.2%
CC1(C)Cc2ccccc2-c2nnc(C(F)(F)F)n21	-13.3%	-7.3%
Nc1ncn([C@@H]2O[C@H](CO)[C@@H](O)[C@H]2O)c(=O)n1	2.82µM*!	6.31µM*
COCc1c(C(=O)N/N=C/c2ccncc2)nnn1-c1nonc1N	i	-13.0%

# Continuation:
Structure	Vaccinia mCherry	VACV Venus inh
c1ccc(-n2nnnc2Sc2ncnc3sc4c(c23)CCCC4)cc1	-12.7%	-5.9%
C=CCc1ccccc1OCC(O)CN1CCN(c2ccccc2OC)CC1 (configuration not stated)	?	-12.7%&-25.9%
O=C(Nc1ccc(-c2cn3c(n2)SCC3)cc1)c1ccco1	-15.5%	-15.0%
O=[N+]([O-])c1ccc(NCCO)c2ncccc12	-1.7%	5.7%
Cc1sc(NC(=O)CSc2nnc(C(C)C)n2C)c(C#N)c1C	i	-5.4%
O=C(NNC(=S)NCc1ccco1)c1cccs1	-9.1%	2.6%
Cc1nn(C)cc1CNC(=O)C1CCC(=O)N(Cc2cccc(C(F)(F)F)c2)C1 (configuration not stated)	-11.0%	-9.9%
Cn1c(=O)c2cc(NC(=O)CC(C)(C)C)ccc2n1-c1ccccc1F	-10.8%	-20.6%
O=C(CCCn1c(=S)[nH]c2cc3c(cc2c1=O)OCO3)NCc1ccco1	i	9.7%
O=C(CCNS(=O)(=O)c1ccc(OC(F)(F)F)cc1)N1CCN(C/C=C/c2ccccc2)CC1	?	?
O=C(N1CCN(c2ccccc2)CC1)C1(c2cccs2)CCOCC1	-11.6%	-3.6%
CN(C)c1ccc(NC(=O)CSc2nnc(-c3ccco3)c(-c3ccco3)n2)cc1	-16.4%	-16.6%
CCOC(=O)c1c(C)[nH]c(C)c1S(=O)(=O)N1CCN(c2ccc(Cl)cc2)CC1	-22.2%	-12.2%
CN(C)CCCN(C(=O)c1ccc(Br)s1)c1nc2cc3c(cc2s1)OCO3	10µM*	12.6µM*
COc1ccc(/C=C/C(=O)N2CCC(c3nc4ccccc4o3)CC2)cc1OC	-1.8%	-10.9%
O=C(O)CCCCCNS(=O)(=O)c1ccc2c3c(cccc13)C(=O)N2	i	-5.7%
Fc1ccc(Nc2nc(SCc3ccccc3F)nc3ccccc23)cc1	-9.6%	-9.1%
Cc1nc2sccn2c(=O)c1S(=O)(=O)NCc1ccccc1Cl	-24.3%	-6.5%

# From PubChem
